Mtb bLac sens: beta-lactam sensitization of Mtb H37Rv, H37Rv. M. tuberculosis H37Rv growth with meropenem, percent inhibition; hits of this screen are not shown here. inhibition, % at 25 µM. hit rate 0.27% among 330,000. AID 434955, 2010;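 active = about 74% or more and at least 40 points above the plate without the antibiotic, then above 30% in a dose series; inconclusive = first-round hits that could not be retested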;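 note: growth measured after seven days incubation then overnight dye step; 0% = bacteria only wells and 100% = bacteria with antibiotic; twin plates without the antibiotic show which effects depend on it; some results filed as inactive read as strong as hits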
YopH PTP inh: YopH tyrosine phosphatase inhibitors, primary screen, biochemical, fluorescence Ex485/Em525. YopH tyrosine phosphatase [Yersinia enterocolitica]. hit rate 0.16% among 140,000. inhibition, %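 (about 10 µM by stock and volumes)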. AID 898, 2007;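 active = inhibition of 50% or more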;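 note: controls were vehicle for no effect and minimum signal wells for full effect; inactives centre near -20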
Mtb H37Rv: M. tuberculosis H37Rv growth inhibitors, H37Rv strain (AID 1626) | M. tuberculosis H37Rv growth inhibition; higher % means a stronger effect | inhibition, % at 10 µM, or IC50 in µM where a hit was titrated | hit rate 0.95% among 220,000;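 active = confirmed in a dose series; inconclusive = inhibition above 80% but not taken into the dose series; inactive = below 80% or under 30% at every dose of the series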;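 note: bacteria incubated seven days before Alamar blue readout; 0% = bacteria only wells and 100% = bacteria with antibiotic wells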
Arbovirus anti: antivirals against arbovirus infection, primary screen, cell-based, full library, 10K replicate subset; AID 1251, 2008; hit rate 0.37% among 200,000; arbovirus infection cell-based antiviral screen; inhibition, % at 10 µM;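 active = inhibition from about 30%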;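 note: bluetongue infection of BSR cells; cell survival read as ATP light after 72 h; 0% = infected wells without compound and 100% = uninfected wells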
RecA intein inh: Mtb RecA intein splicing inhibitors, primary screen, biochemical, fluorescence, HTS | hit rate 0.75% among 290,000 | cell-free RecA intein splicing | Protein RecA (Mycobacterium tuberculosis (strain ATCC 25618 / H37Rv)), P9WHJ3 | inhibition, %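 (about 9 µM by stock and volumes)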 | AID 2221, 2009; in the data active = inhibition above about 30%; inconclusive = no clear call, values can overlap the other calls;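 note: 0% = vehicle wells and 100% = reference inhibitor control wells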
Target sequence (P9WHJ3 whole entry, looked up): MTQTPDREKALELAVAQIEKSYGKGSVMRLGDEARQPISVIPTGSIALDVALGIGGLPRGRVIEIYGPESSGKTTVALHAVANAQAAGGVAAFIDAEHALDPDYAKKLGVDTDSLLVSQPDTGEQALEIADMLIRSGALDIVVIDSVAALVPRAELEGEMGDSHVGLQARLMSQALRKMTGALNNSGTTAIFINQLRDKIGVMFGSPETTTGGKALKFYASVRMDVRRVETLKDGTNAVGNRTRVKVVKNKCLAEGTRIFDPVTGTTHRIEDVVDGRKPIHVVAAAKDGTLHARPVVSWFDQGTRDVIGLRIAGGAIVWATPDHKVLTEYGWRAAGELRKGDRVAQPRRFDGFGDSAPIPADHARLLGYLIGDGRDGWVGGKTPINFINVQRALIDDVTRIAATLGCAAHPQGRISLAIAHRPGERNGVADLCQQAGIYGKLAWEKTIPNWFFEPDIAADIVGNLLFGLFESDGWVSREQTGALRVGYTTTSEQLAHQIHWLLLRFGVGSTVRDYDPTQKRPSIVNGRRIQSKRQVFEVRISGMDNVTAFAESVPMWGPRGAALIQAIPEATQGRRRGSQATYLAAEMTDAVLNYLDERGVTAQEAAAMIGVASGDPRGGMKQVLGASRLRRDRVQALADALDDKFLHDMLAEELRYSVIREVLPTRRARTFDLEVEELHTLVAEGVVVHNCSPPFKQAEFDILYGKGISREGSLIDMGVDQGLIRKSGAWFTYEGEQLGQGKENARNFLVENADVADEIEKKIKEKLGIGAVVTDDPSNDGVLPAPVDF
Arbovirus anti repeat: also measured in Arbovirus anti; calls as there; inhibition, %; measured here: 10K subset replicate screen; many hits read low in the repeat;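 first of two repeat runs on a subset; 0% = infected and 100% = uninfected wells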
* marks the source's active call; other numbers are inactive results; ? = inconclusive; / = not tested or not shown. The list is partial; the hit share may differ from the screen's.

SMILES | Mtb bLac sens | YopH PTP inh | Mtb H37Rv | Arbovirus anti | RecA intein inh | others
COc1cc(C(=O)N/N=C(\C)c2ccc3c(c2)OCO3)cc(OC)c1OC | -7 | / | -1% | -13 | 0.2
CCC[n+]1c(C)sc2c(OC)ccc(OC)c21 | 5 | / | 1% | -10 | -2.6
CCOc1ccc(N2C(=O)C3Sc4[nH]c(=O)sc4C(/C=C/c4ccccc4)C3C2=O)cc1 (stereo not given) | -8 | -17 | 15% | -6 | 14
O=C(NCCNC1CCCCC1)c1ccco1 | 6 | / | / | / | 0.6
Cc1ccc(C(=O)NC(=S)Nc2cccc(-c3nc4ccccc4s3)c2)cc1 | 3 | -29 | 12% | -8 | -0.8
COc1ccc(CNC(=O)CCNS(=O)(=O)c2ccc(Br)s2)cc1 | 0 | / | / | / | -0.8
CC(=O)Nc1ccc(OCC(O)CN2C(C)(C)CC(O)CC2(C)C)cc1 (stereo not given) | -5 | -29 | 0% | -5 | 0.4
CCCCN(Cc1ccccc1)C(=O)C1CCN(S(=O)(=O)c2c(C)noc2C)CC1 | 3 | 1 | 5% | -1 | 2.3
Cc1nn(C)cc1S(=O)(=O)N1CCN(Cc2ccc(F)cc2Cl)CC1 | -4 | / | 5% | 3 | -1.3
Cc1ccccc1NC(=O)CSc1nc(N)c(C#N)cc1C#N | -5 | -16 | -9% | -1 | -2.1
Cc1ccc(-n2nnc(-c3cnc4ccccc4c3)n2)cc1 | 4 | / | / | -5 | -2.0
CC(C)CCNC(=O)C(c1ccco1)N(Cc1ccc(F)cc1)C(=O)c1snc(C(N)=O)c1N (stereo not given) | -4 | -38 | 5% | -33 | 7.1
CCCCOc1ccc(CSCCN)cc1Cl | -4 | / | / | / | 2.1
COCCN1C=C2C(=O)C(C)(OC(=O)c3cccs3)C(=O)C=C2C=C1CCCC(=O)OC (stereo not given) | 1 | / | 14% | / | 7.4
O=C(CCc1nnc2ccc(NCc3ccco3)nn12)N1CCN(c2ccccc2)CC1 | -5 | / | / | / | 1.2
CC[C@H]1CC2CN3CCc4c([nH]c5cc(OC)ccc45)[C@](C(=O)OC)(C2)[C@H]13 | 1 | / | -6% | / | 4.4
CCN(CC)S(=O)(=O)N1CCN(S(=O)(=O)N2CCOCC2)CC1 | -5 | / | -1% | 6 | -2.9
CC(C)(C)NC(=O)COC(=O)c1nsc(Cl)c1Cl | -10 | -15 | 0% | -1 | 1.8
COc1ccc(CN(Cc2nc3ccccc3c(=O)[nH]2)C(=O)C(C)(C)C)cc1 | 6 | -16 | 2% | 10 | -1.0
COc1ccc(NC(=O)c2ccc(-c3csc(C)n3)cc2)cc1 | -2 | / | / | / | 0.0
OC(CNCC1COc2ccccc2O1)COc1ccc(Cl)cc1 (stereo not given) | 9 | / | / | / | 2.0
Cc1ccc(C)c2nc(SCC(=O)NCc3cccs3)c(C#N)cc12 | 3 | -32 | 0% | 2 | -0.7
COc1ccc(C(CNC(=O)c2ccc(-c3cccc(C(F)(F)F)c3)o2)N2CCOCC2)cc1 (stereo not given) | 31 | / | / | / | 8.9
C/C(=N\Nc1nc2ccccc2[nH]1)c1ccc([N+](=O)[O-])cc1 | -1 | / | 11% | / | -6.0
[N-]=[N+]=CC(=O)OC[C@H](N)C(=O)O | -10 | -25 | -14% | 2 | 0.4
CC1(C)CC(NC(=O)C2CCCCC2C(=O)O)CC(C)(C)N1 (stereo not given) | 7 | / | 0% | / | -11
O=C(CCCN1C(=O)/C(=C/c2ccccc2Cl)SC1=S)N1CCCC1 | 74 | / | / | / | 18
Cc1ccc(Sc2ncccc2C(=O)NCc2cc([N+](=O)[O-])ccc2O)cc1C | -8 | / | / | / | 4.1
CC(=O)c1cccc(NC(=O)CN(C)S(=O)(=O)c2cccc3nsnc23)c1 | -4 | / | / | / | 1.2
O=C(Cn1cnc2c(cnn2-c2ccc(F)cc2)c1=O)NCC1CCCO1 (stereo not given) | -19 | -55 | 1% | -8 | /

Compounds shown so far that have two or more sulfur atoms, in the order listed:
SMILES | Mtb bLac sens | YopH PTP inh | Mtb H37Rv | Arbovirus anti | RecA intein inh | others
CCOc1ccc(N2C(=O)C3Sc4[nH]c(=O)sc4C(/C=C/c4ccccc4)C3C2=O)cc1 (stereo not given) | -8 | -17 | 15% | -6 | 14
Cc1ccc(C(=O)NC(=S)Nc2cccc(-c3nc4ccccc4s3)c2)cc1 | 3 | -29 | 12% | -8 | -0.8
COc1ccc(CNC(=O)CCNS(=O)(=O)c2ccc(Br)s2)cc1 | 0 | / | / | / | -0.8
CCN(CC)S(=O)(=O)N1CCN(S(=O)(=O)N2CCOCC2)CC1 | -5 | / | -1% | 6 | -2.9
Cc1ccc(C)c2nc(SCC(=O)NCc3cccs3)c(C#N)cc12 | 3 | -32 | 0% | 2 | -0.7
O=C(CCCN1C(=O)/C(=C/c2ccccc2Cl)SC1=S)N1CCCC1 | 74 | / | / | / | 18
CC(=O)c1cccc(NC(=O)CN(C)S(=O)(=O)c2cccc3nsnc23)c1 | -4 | / | / | / | 1.2

(cont.)
SMILES | Mtb bLac sens | YopH PTP inh | Mtb H37Rv | Arbovirus anti | RecA intein inh | others
O=C(Cc1ccccc1)Nc1cccc(-c2nnc(-c3ccco3)o2)c1 | -16 | -17 | 6% | -4 | 0.5
O=C(Nc1cccc(S(=O)(=O)N2CCCCCC2)c1)C1CCN(C(=O)c2ccc(F)cc2)CC1 | -9 | / | / | / | 3.5
CCCCN(C)C(=O)CNC(=O)c1nn(-c2ccc(OC)cc2OC)c(=O)c2ccccc12 | 4 | / | / | / | -1.5
COc1cc(CNCc2ccncc2)cc(Br)c1OCc1ccccc1F | 90 | -11 | 48% | 2 | 3.2
Cc1ccc2c(C)c(C(=O)NCCN3CCOC3=O)oc2c1C | 1 | / | / | / | 2.4
Cc1nc(NCCN)c(C#N)c2c1COC(C)(C)C2 | -1 | -28 | / | 0 | 1.7
Cc1ccc(Nc2nc(N)nc(CN3CCCCCC3)n2)cc1 | -8 | 3 | -9% | 0 | 1.7
Cc1cc(C(=O)Nc2ccccc2Cl)n(-c2ccccc2)n1 | 1 | / | / | / | 0.0
CCCCOc1cccc(-c2nnc(N)s2)c1 | 53 | -13 | 38% | -7 | 0.7
O=C(CSc1nc(=O)n2ccccc2n1)Nc1ccc2c(c1)OCO2 | -5 | / | / | / | -0.3
COc1cccc(N2C(=O)C3NN=C(C(=O)CN4C(=O)c5ccccc5C4=O)C3C2=O)c1 (stereo not given) | -13 | / | -5% | / | 0.2
O=S(=O)(NCCc1ccc(F)cc1)c1cccc2cccnc12 | 0 | / | 3% | 7 | 4.8
O=C1CCCN1CC(O)CS(=O)(=O)Cc1ccccc1 (stereo not given) | 2 | / | / | / | -0.1
CC(C)n1c(CCC(=O)O)ccc1-c1ccccc1 | -3 | -32 | -12% | -1 | -0.3 | Arbovirus anti repeat=3
Cc1ccc(S(=O)(=O)NC(=O)NCCCN2CCOCC2)cc1 | -10 | / | / | / | -0.6
CCOC(=O)c1ccc(NC(=O)C2CCN(S(=O)(=O)c3c(C)nn(C)c3C)CC2)cc1 | -5 | / | / | / | -0.2
Cc1ccc(NC(=O)CSc2nc(N)c3c4c(sc3n2)CSC(C)(C)C4)cc1 | 87 | -41 | ? | -20 | -1.3
Cn1c(CNc2nc3ccccc3n2C)nc2ccccc21 | 2 | -13 | -1% | 5 | 5.1
COc1cccc(C(=O)CSc2nc3cccnc3n2C)c1 | -5 | -1 | 8% | 3 | 0.5
CC(C)C(C(=O)Nc1ccccc1)N1C(=O)c2ccccc2C1=O (stereo not given) | 6 | -12 | -62% | 9 | -2.3
CCOCCCNCc1cccc(OC)c1 | -1 | -30 | -11% | 2 | 0.2
N/C(=N\OC(=O)Cc1cccs1)c1ccc(Cl)cc1 | 20 | / | -3% | / | -2.2
Cc1ccccc1OCc1nc(-c2ccc(-n3cccc3)cc2)no1 | -1 | -43 | -2% | -22 | 1.2 | Arbovirus anti repeat=-21
CCC(Sc1nc(C)cc(C)n1)C(=O)Nc1ccc(Cl)cn1 (stereo not given) | 27 | -38 | -2% | -1 | 3.0
CSCCC(NC(=O)OCc1ccccc1)C(=O)NCc1cccnc1 (stereo not given) | 0 | / | / | / | -4.6
Cc1cc(NC(=O)c2ccccc2)nc(C)n1 | -3 | / | -5% | / | -1.0
CCOc1ccc2nc(SCC(=O)c3ccc(O)cc3O)sc2c1 | 2 | / | / | / | -6.9
CCN(Cc1ccccc1)c1ccc(/C=N/NS(=O)(=O)c2cccc([N+](=O)[O-])c2)cc1 | -1 | -22 | 0% | -4 | 11
CCOc1ccc(NC(=O)N2CCN(c3nc4ccccc4s3)CC2)cc1 | -5 | -31 | / | -4 | -1.9
CCN(C(=O)C(C)Cl)c1ccccc1 (stereo not given) | 0 | / | -3% | 8 | 3.2
Cc1ccc(OCCCC(=O)Nc2nncs2)cc1 | 1 | -40 | -11% | -3 | 0.0 | Arbovirus anti repeat=6
COc1ccc(Cl)cc1/C=N/NC(=O)c1c(-c2ccccc2)noc1C | 0 | / | / | / | 1.1
COc1ccc2[nH]cc(C(=O)CN3CCCCC3C)c2c1 (stereo not given) | / | 11 | -6% | -4 | -2.7
CC(CCc1ccccc1)NC(=O)Cc1ccc(Br)cc1 (stereo not given) | 1 | / | / | / | -3.4
Cc1cc(Nc2ccccc2Cl)nc(-c2ccccc2O)n1 | 55 | / | / | / | 19
COc1cc(/C=C/c2ccc3cccc(O)c3n2)cc(OC)c1OC | 96 | / | / | / | 2.7
C=CCNC(=O)c1cc(-c2ccc3c(c2)OCO3)on1 | -7 | / | / | / | -5.3
Cc1ccc(C)c(NC(=O)COC(=O)COc2cccc3c2OC(C)(C)C3)c1 | 1 | / | / | / | -5.4
O=C(COC(=O)c1cc([N+](=O)[O-])ccc1N1CCOCC1)NCCc1ccccc1 | -8 | / | / | / | 1.8
Cc1cc(C(=O)Cn2nc(C(=O)O)c3ccccc3c2=O)c(C)n1CCc1ccc(F)cc1 | 70 | / | 4% | / | 3.4
CCn1c(=O)c(C(=O)CN2CCN(S(=O)(=O)c3ccccc3)CC2)c(N)n(Cc2ccccc2)c1=O | -25 | / | -5% | -4 | -1.1
O=C(CSc1nncn1-c1ccccc1)Nc1cc(F)ccc1F | -4 | / | / | / | -0.8
COc1ccc(OCCSc2nc3ccccc3n2CCC(=O)O)cc1 | 3 | / | / | / | -0.4
COc1ccc(NS(=O)(=O)c2ccc3c(c2)CCCN3C(C)=O)cc1 | -10 | / | / | / | 2.0
CC(C)(C)c1ccc(COc2ccsc2C(=O)O)cc1 | -3 | / | / | 8 | 2.0
O=C(COc1ccc(Cl)cc1)N(Cc1cccs1)C1CCS(=O)(=O)C1 (stereo not given) | 6 | / | / | / | 3.7
Cc1cc2cc(CNC(=S)Nc3ccc(OC(F)(F)F)cc3)ccc2n1C | 2 | -27 | / | -6 | 0.9
O=C(C[n+]1ccccc1)N/N=C/c1cc(Br)ccc1O | -1 | / | / | / | -1.1
Cc1nnsc1C(=O)N1CCCC(C(=O)c2ccc(C(F)(F)F)cc2)C1 (stereo not given) | -5 | / | -3% | 0 | 1.7
C=CCn1c(C)c(C=C2C(=O)NC(=O)NC2=O)c2ccccc21 | 0 | / | / | / | 0.3
COC(=O)c1sccc1NC(=O)Nc1cccc(C)c1 | -12 | / | 4% | 7 | 4.6
Cc1nnc(SC(C)C(=O)NC2CCCCC2C)n1N (stereo not given) | -12 | / | / | / | 1.0
CCCN(CCC)C1Sc2ccc(C(=O)OC)cc2NC1=O (stereo not given) | -3 | -13 | / | -2 | -0.9
COc1ccc(-c2c(C)oc3cc(O)cc(O)c3c2=O)cc1OC | -4 | -18 | 10% | 5 | -8.2 | Arbovirus anti repeat=6
COc1ccc(CNC(=O)COC(=O)c2cc(-c3ccco3)nc3ccccc23)cc1 | / | -21 | / | 0 | /
COC(=O)CSc1nnc(-c2c[nH]c3ccccc23)o1 | 86 | / | / | / | -0.1
Oc1ccccc1-c1cc(-c2cccc(F)c2)n[nH]1 | 3 | -10 | 0% | -10 | 13
CCC(C)[C@H](NC(=O)NCc1cccnc1)C(=O)OC (stereo not given in full) | -6 | / | 0% | / | -1.2

Source: PubChem (several laboratories)
